Assay outcomes as filed in PubChem BioAssay.
gsp antagonist = antagonizes gsp, the McCune-Albright syndrome mutation; gsp-mutant cells, cAMP HTRF, 30 min; control for the full effect not named in the record; Potency, µM (series often up to 76.9 µM), for inactives: at the highest dose activity change, negative = inhibition, most hits filed as inhibitors; 0.4% of 340,000 active; AID 624288; active = falling curve of any shape with a large fitted effect; inconclusive = falling curve, mostly with a smaller effect; inactive = flat or rising curve; cell line not stated here;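 also: intracellular cAMP measured with PDE inhibitor Ro 20-1724 present during compound exposure; potency is read from the fitted curve at half-maximal effect; % is scaled to controls: 0 for no effect and ±100 for the full control effect; nearly all actives have a fitted effect of over 65% in size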
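HTRF cAMP measurement after 30 min RT detection following 30 min, 37C compound treatment alongside […] (added as 300 uM solution) in G418-selected cells seeded at 2000/well and grown 16–24 h.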
Menin-MLL FL inh = displaces fluorescein MLL peptide from human menin; Fluorescence polarization, fluorescein-MLL peptide displacement from menin; FP activity change, % at 61.4 µM; 290,000 tested, under 10 active; AID 1766; inconclusive = falling polarisation curve, or a change in total fluorescence; inactive = total fluorescence flat and polarisation flat or rising; no compound was filed as active; the % refers to the polarisation; negative = inhibition;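 also: % of control where 0% means no effect; inhibitors lower the polarisation; unlabelled MLL peptide was the positive control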
ClpP mod = qHTS Assay for Activators of ClpP. 1.9% of 340,000 active. ATP-dependent Clp protease proteolytic subunit (Bacillus subtilis (strain 168)), P80244. Potency, µM (doses to about 57.5 µM), without a hit: at the highest dose activity change, negative = active. purified B. subtilis ClpP, FRET peptide cleavage, 20 min; active = well fitted falling curve with a large enough effect; inconclusive = small, poorly fitted or top-dose-only effect; inactive = no such curve, though single readings can be large or run the other way; also: potency is read from the fitted curve at half-maximal effect; the source files actives as falling curves though it sought activators and does not explain the sign; nearly all actives have a fitted effect of over 65% in size; many hits overshoot -100%
Target sequence (P80244 whole entry, looked up): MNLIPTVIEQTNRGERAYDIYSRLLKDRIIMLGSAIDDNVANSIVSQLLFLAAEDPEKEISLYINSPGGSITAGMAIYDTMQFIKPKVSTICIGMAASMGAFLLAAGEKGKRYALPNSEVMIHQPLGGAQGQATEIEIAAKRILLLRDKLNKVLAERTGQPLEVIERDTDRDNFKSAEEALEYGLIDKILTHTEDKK
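Buffer: 100 mM Tris/HCl pH8, 100 mM KCl, 0.05% low protease BSA, 2.5% glycerol, 0.01% Tween-20. ClpP 10 microg/mL final; 20 min RT; delta FRET normalized to ADEP and DMSO controls.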
D2 agonist = agonists of human D2 dopamine receptor (beta-arrestin); P14416; DiscoveRx PathHunter D2 beta-arrestin, luminescence, 90 min; 100% = 57 uM dopamine signal; activation, % (no concentration beside the values); 0.084% of 360,000 active; in the data active = activation above about 40%; inconclusive = about 15% to 40%; inactive = below about 15%; also: compound concentration not given in the record; the text of the record calls up to 30% inactive
Target sequence (P14416 whole entry, looked up): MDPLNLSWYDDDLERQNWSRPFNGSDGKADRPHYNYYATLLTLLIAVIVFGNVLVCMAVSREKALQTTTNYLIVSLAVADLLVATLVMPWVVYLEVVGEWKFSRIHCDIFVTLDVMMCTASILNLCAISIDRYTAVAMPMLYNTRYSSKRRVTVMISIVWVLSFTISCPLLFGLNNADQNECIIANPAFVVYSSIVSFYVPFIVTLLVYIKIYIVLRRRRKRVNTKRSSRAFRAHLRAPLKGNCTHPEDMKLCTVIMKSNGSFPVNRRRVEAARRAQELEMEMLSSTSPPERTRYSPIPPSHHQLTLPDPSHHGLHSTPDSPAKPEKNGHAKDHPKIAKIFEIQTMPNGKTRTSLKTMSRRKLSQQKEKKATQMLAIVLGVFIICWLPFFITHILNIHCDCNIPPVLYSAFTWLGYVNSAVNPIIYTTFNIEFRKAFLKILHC
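DiscoveRx PathHunter D2 beta-arrestin cells (2,100/well) attached overnight, then compound-stimulated 90 min at 37 C in HBSS/10 mM HEPES/0.1% Tween-20 buffer; beta-galactosidase complementation read by luminescence after 1 h at ambient temperature. Dopamine 57 uM final (EC100) as control.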
PINK1 modulator = PINK1 expression modulation; PINK1 immunofluorescence, high-content cytometry, 24 h; Potency, µM (titrated, usually from 76.6 µM), inactives show at the highest dose activation (PINK1 increase), actives largely listed as activators; 0.2% of 410,000 active; active = well fitted activation curve with a large enough effect; inconclusive = small, poorly fitted or top-dose-only effect; inactive = flat fitted curve, though single readings scatter; cell line not stated here;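 also: potency is read from the fitted curve at half-maximal effect; % of control where 0% means no effect; nearly all actives have a fitted effect of over 65% in size; a mitochondrial uncoupler was the plate control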
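PINK1 protein level read as immunofluorescence by microplate cytometer in a fixed, stained stable cell line after 24 h exposure to five compound concentrations, with CCCP as control.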
Sfp inh = Sfp phosphopantetheinyl transferase inhibition | Q9F4F7 | Biochemical Sfp PPTase activity, qHTS | Potency, µM, for the others: max response, negative = inhibition, usual class: inhibitors | 3.5% of 310,000 active | AID 1490; active = well fitted inhibition curve with a large enough effect; inconclusive = small, poorly fitted or top-dose-only effect, or another doubt; inactive = no such curve, though single readings can be large or run the other way;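 also: the enzyme is Sfp with the accession as filed and its product quenches rhodamine fluorescence; potency is read from the fitted curve at half-maximal effect; 0% = enzyme reaction without inhibitor and -100% = no enzyme wells; top concentration of the series not given in the record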
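After 15 min at room temperature with compound, 15 nM Sfp received 5 uM rhodamine-CoA plus 12.5 uM BHQ-2-ybbR (50 mM Hepes pH 7.6, 10 mM MgCl2). Rate came from the fluorescence difference over 30 min, ex 525/em 598 nm.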
gsp agonist = gsp mutant agonism | gsp mutant cells, cAMP HTRF, 30 min; control for the full effect not named in the record | Potency, µM (top dose mostly 76.9 µM), without a hit: at the highest dose activation (cAMP increase), hits mostly activators | 0.13% of 340,000 active | AID 624287; active = well fitted activation curve with a large enough effect; inconclusive = small, poorly fitted or top-dose-only effect, or another doubt; inactive = no such curve, though single readings can be large or run the other way; cell line not stated here;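 also: phosphodiesterase inhibitor Ro 20-1724 added with compounds to block cAMP breakdown; potency is read from the fitted curve at half-maximal effect; nearly all actives have a fitted effect of over 60% in size; about a fifth of the inactives were tested at one dose only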
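Cells stably selected in G418 were plated at 2000/well, grown 16-24 hr, then given compounds in DMSO with the PDE inhibitor […] (300 uM solution added) for 30 min at 37C; cAMP was read by HTRF.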
Numbers without * were called inactive; ? = inconclusive; . = no result given; [ ] = another dose, or the depositor's remark.

Order of values: gsp antagonist | Menin-MLL FL inh | ClpP mod | D2 agonist | PINK1 modulator | Sfp inh | gsp agonist
#1 Cc1ccc(NC(=S)N2CCC(N(C)CC3CCCO3)CC2)c(C)c1 (stereo not drawn)
 : 13% | 4.0 | 0.6% | -2.5 | -2.0%[38.3 µM] | 5% | -21%
#2 O=[N+]([O-])c1ccc(NC(=S)N/C(=N/CS(=O)(=O)c2ccccc2)c2ccccc2)cc1
 : -2% | 2.7 | 0.4% | -5.1 | 3.1% | -7% | -5%
#3 CCN=c1sc2ccccc2n1CC(O)COc1ccccc1 (stereo not drawn)
 : -6%[15.4 µM] | -2.2 | -6.8% | -3.5 | 2.3% | -15% | 4%
#4 CCn1c(CCNC(=O)c2ccco2)nc2ccccc21
 : 17% | -0.2 | . | -0.9 | -0.1% | 12% | -3%[15.4 µM]
#5 COc1ccc(C(=O)NCc2nnc(SCC(=O)Nc3ccccc3OC)o2)cc1
 : -5% | . | 0.3% | -1.3 | 0.1% | 5% | ?
#6 COc1ccccc1OCCn1c(CO)nc2ccccc21
 : -5% | 0.9 | 0.1% | -2.7 | 1.4% | -1% | ?
#7 Cn1ccc2c(-c3cccc4ccccc34)cc3c(c21)C1CCC3O1 (stereo not drawn)
 : . | . | 5.2% | 3.3 | 2.5% | . | .
#8 COc1ccc(NC(=O)N2CC[C@@]3(CCCN(S(C)(=O)=O)C3)C2)cc1
 : . | 4.2 | . | . | 1.4% | 6% | .
#9 COC(=O)Cn1c(CN(C)Cc2ccccc2)nc2c1c(=O)n(C)c(=O)n2C
 : -19% | -1.1 | 1.3% | -13 | 2.2% | 11% | 3%
#10 C[C@@H]1CN([C@@H](C)CO)C(=O)CCCn2nncc2CO[C@@H]1CN(C)C(=O)Nc1ccccc1F
 : . | . | 0.5% | -8.3 | 1.2% | . | -46%[inhibitor]
#11 COc1ccc(NC(=O)c2cc(-c3cc(Cl)ccc3C)n[nH]2)cc1OC
 : . | . | 0.3% | 1.6 | 7.3% | . | .
#12 C/C(CC(=O)Nc1ccc2c(c1)OCO2)=N\NC(=O)c1ccc(N)cc1
 : 4% | -1.8 | . | 3.6 | -0.3% | 13% | ?
#13 CCSc1nnc(-c2cc3c(s2)-c2ccccc2CC3)o1
 : -5% | 2.5 | 32% | -1.4 | 2.8% | ? | 11%
#14 O=C(NCCCN1CCOCC1)c1cc(-c2ccc(Cl)cc2)on1
 : 9% | -1.1 | -1.7% | -1.9 | 2.5%[38.3 µM] | 11% | 10%
#15 COc1ccc(NC(=O)C[C@H]2C(=O)N(c3ccc(Br)cc3)C[C@@H]2C)cc1
 : . | . | -1.8% | -1.3 | 1.1% | . | -9%
#16 O=C(COc1ccc(S(=O)(=O)N2CCOCC2)cc1)N1CCc2ccccc2C1
 : -2% | 0.5 | -0.5% | -5.0 | -1.1% | -2% | -33%[inhibitor]
#17 CC(=O)N(/N=C/c1ccc([N+](=O)[O-])o1)c1nc2ccccc2c(=O)n1-c1ccccc1
 : -5% | 3.6 | -1.2% | -11 | 2.1% | -15% | 24%
#18 O=C(NCCCn1ccnc1)c1cc2ccccc2o1
 : 6% | -0.4 | . | -0.6 | -0.4% | 9% | 21%[15.4 µM]
#19 CCN(CC)C(=O)c1cc2c(=O)oc3ccccc3c2s1
 : 7% | 2.7 | -5.8% | -2.6 | -2.4%[38.3 µM] | 7% | ?
#20 COC(=O)c1cc(NC(=O)c2c(Cl)nc3sccn23)cc(C(=O)OC)c1
 : 1% | -1.9 | -2.5% | -0.8 | 12% | -2% | 4%
#21 CCOC(=O)C(C)n1nc(/C=C/c2ccc(OC)cc2)ccc1=O (stereo not drawn)
 : -5% | -1.3 | . | 2.7 | 0.9% | -24% | 4%[15.4 µM]
#22 Brc1ccc(CSc2nnc(-c3ccco3)o2)cc1
 : -3% | -0.6 | 1.3% | -3.3 | 0.8% | 56µM* | -24%
#23 CN1CCN(CC(=O)NC(=O)NC2CCCCC2)CC1
 : 10% | . | 1.3% | -1.0 | -1.1% | . | 23%
#24 O=C(NCC1(c2ccccc2)CCCC1)c1cccc(Br)c1
 : -16% | 1.7 | 0.3% | 2.6 | 3.1% | 8% | 4%
#25 Cc1ccc(S(=O)(=O)Nc2nncs2)cc1
 : -10% | -2.0 | -0.4% | 0.0 | -1.5%[38.3 µM] | 3% | 9%
#26 O=C(COC(=O)CNC(=O)c1ccc(Cl)cc1)Nc1cccc(S(=O)(=O)N2CCCC2)c1
 : -9% | 1.9 | 4.9% | 1.1 | 0.4% | 12% | -1%
#27 CC(=O)c1sc(NC(=O)c2ccc(C)c(C)c2)nc1C
 : -2% | 1.2 | -0.6% | -1.4 | 1.9% | 20% | 0%
#28 CSCC(C)N1CCC(n2nccc2NC(=O)c2ccc3c(c2)OCO3)CC1 (stereo not drawn)
 : -10% | . | 1.4% | -3.1 | -0.1% | 8% | -9%
#29 COCCn1c(NC(=S)NC(=O)C2CC2)cc(=O)[nH]c1=O
 : -15% | 7.7 | 0.3% | -7.2 | 1.2% | 22µM* | -17%[15.4 µM]
#30 CC(C)(C)C(=O)/C=C(N)/C=C/c1ccccc1
 : -5% | 3.3 | -0.5% | -2.5 | 1.6%[38.3 µM] | 10% | 27%
#31 O=C(Nc1cc(N2CCOCC2)ncn1)Nc1cccc2ccccc12
 : 0% | -1.8 | -5.6% | -0.8 | . | 14% | -39%[inhibitor]
#32 CCN(CC)c1ccc(NC(=O)CCN2C(=O)c3ccccc3S2(=O)=O)c(C)c1
 : -22% | . | . | -2.7 | -0.6% | . | -4%[15.4 µM]
#33 CN1CCN(C(=O)CN(c2ccccc2)S(=O)(=O)N(C)C)CC1
 : 4% | 0.3 | . | -0.4 | 1.8% | 14% | 8%
#34 Clc1ccc(CNc2ccccc2NCc2ccc(Cl)nc2)cn1
 : -30% | -1.4 | -0.7% | 5.5 | 0.8% | -2% | -6%[15.4 µM]
#35 CCOC(=O)N1CCC(NC(=O)c2cc(COc3ccccc3SC)on2)CC1
 : 2% | 2.8 | ? | -0.9 | -0.6% | 1% | -2%[15.4 µM]
#36 CCC1CCCCN1C(=O)Nc1ccc(F)cc1 (stereo not drawn)
 : 4% | -1.0 | -2.0% | -3.1 | -2.0%[38.3 µM] | 7% | -1%
#37 COCCCNC(=S)NNC(=S)Nc1ccccc1
 : -12% | -0.3 | . | 0.1 | 0.9% | 45µM* | 3%[15.4 µM]
#38 CCS(=O)(=O)N1Cc2ccccc2CC1C(=O)Nc1ccc(F)c(F)c1F (stereo not drawn)
 : 1% | 0.3 | -4.5% | 1.7 | 0.6% | 7% | 0%
#39 CC(C)(C)C(=O)Nc1ccc(S(=O)(=O)N2CCC(c3nc4ccccc4[nH]3)CC2)cc1
 : 12% | . | 9.3% | 2.0 | -1.5% | . | 2%
#40 N=c1sccn1CC(=O)Nc1ccccc1-c1ccccc1
 : 8% | 0.4 | -4.1% | -0.7 | -2.3% | -22% | ?
#41 CCCc1nc(N)c(C#N)c(-c2ccco2)c1CC
 : 4% | ? | ? | -2.6 | ? | 2% | 3%
#42 O=C(O)c1ccccc1-c1ccc(/C=c2\sc3nc4cc(Br)cnc4n3c2=O)o1
 : -5% | ? | -5.2% | -1.5 | 1.7%[38.3 µM] | 35µM* | 15%
#43 CSc1ncnc2c1ncn2CCCNCC(c1ccccc1)c1ccccc1
 : . | . | 0.8% | -5.0 | 6.1% | . | ?
#44 CCOC(=O)C1CCN(C(=O)c2ccc3c(Cl)c4c(nc3c2)CCCC4)CC1
 : -2% | -1.5 | -2.2% | -3.8 | -0.5% | -3% | -10%
#45 COc1ccc(C(=O)NCc2cnn(C)c2)cc1OC1CCN(C(C)C)CC1
 : 15% | -1.8 | -1.1% | 2.6 | -1.1% | 11% | 5%
#46 COc1ccc(NC(C)=O)cc1S(=O)(=O)N1CCN(C(=O)c2ccccc2F)CC1
 : 3% | 0.7 | -1.1% | -2.5 | -1.1% | 10% | -64%[inhibitor]
#47 NC(=O)CC(NC(=O)Cc1ccc(Cl)cc1)c1ccc(NC2CCCCCCC2)c([N+](=O)[O-])c1 (stereo not drawn)
 : -3% | -4.2 | 1.2% | -2.1 | 1.1% | 0% | .
#48 COc1ccc(-c2cc(C3CCNCC3)[nH]n2)cc1
 : 9% | -17 | 0.8% | 3.8 | 0.6% | -13% | -26%
#49 O=C(O)c1cc2c(ccc3ccccc32)[nH]1
 : -15% | 1.3 | ? | -2.9 | 0.2% | 19% | -2%
#50 COc1cccc2cc(C(=O)N3CC(C)OC(C)C3)c(=O)oc12 (stereo not drawn)
 : -12% | -0.8 | -8.6% | -2.2 | -0.8% | 11% | 9%
#51 CSc1ncccc1C(=O)N(C)CC(=O)Nc1ccc(Cl)c(C(F)(F)F)c1
 : -26% | . | -0.7% | 1.8 | 2.1% | 6% | -48%[inhibitor]
#52 COc1cccc(-c2cnc(C(O)c3ccc(Cl)cc3)[nH]2)c1 (stereo not drawn)
 : . | . | 0.5% | 3.1 | 1.9% | . | .
#53 N#Cc1c(SCC(=O)Nc2ccccc2)nsc1SCC(=O)Nc1ccccc1
 : 2% | 7.5 | . | 0.3 | 17% | 3% | -11%
#54 Cc1cccc(OCCCC(=O)Nc2ccc(N3CCCCC3)cc2)c1C
 : 6% | -0.6 | -2.3% | 0.7 | 2.9%[38.3 µM] | 16% | -28%
#55 O=C(Nc1nccs1)c1ccc(Br)s1
 : 0% | 1.1 | 0.7% | 1.8 | -0.3% | 14% | ?
#56 COc1ccc(C2C(C(C)=O)=C(C)N=c3s/c(=C\c4cc(C)n(C)c4C)c(=O)n32)c(OC)c1 (stereo not drawn)
 : -19% | ? | -4.6% | -3.8 | 0.2% | ? | -9%
#57 C=CCOC(=O)N1CCC2CC1c1cc(-c3ccc(OC)cc3)ccc12 (stereo not drawn)
 : -18% | . | -2.1% | -1.2 | -0.8% | . | .
#58 COc1cc(C=O)ccc1OCCOCCOc1ccc(Cl)cc1
 : -2% | 1.5 | -3.5% | 1.1 | 0.4% | -3% | -8%
#59 Cc1cc(C)n(-c2ccc(C(=O)NCC(=O)Nc3cc(Cl)ccc3Cl)cc2)n1
 : -11% | . | -3.1% | -0.9 | 0.9% | . | ?
